Compound activity: PubChem BioAssay, several laboratories
Bead autofluor: compound fluorescence in toxin protease inhibitor counterscreen; compound autofluorescence counterscreen, microsphere flow cytometry; stronger effect = higher value; fluorescence intensity (concentration not given with the values); actives 3.1% (n = 360,000); AID 624483;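 active means at least 3 SD above the mean of all compounds, about 16000 in these data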;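 further: 100 nL of 1 mM stock went into each well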
PrP UTR inh: inhibition of PrP 5' UTR reporter expression. cell-based PrP 5' UTR mRNA reporter, plate reader. inhibition, % (test concentration not listed). actives 0.35% (n = 340,000);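 active means every replicate at 50% or more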;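 further: 0 = median of the neutral control wells; tested in H4 reporter cells; numbers are from one replicate; inactives centre near -14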
* = called active by the depositor. This is a subset. The share of hits here may be higher or lower than overall.

SMILES	Bead autofluor	PrP UTR inh
CCC(C)C(N)C1=NC(C(=O)N[C@@H](CC(C)C)C(=O)N[C@H](CCC(=O)[O-])C(=O)N[C@H](C(=O)N[C@H]2CCCCNC(=O)[C@H](CC(N)=O)NC(=O)[C@@H](CC(=O)[O-])NC(=O)[C@H](Cc3cnc[nH]3)NC(=O)[C@@H](Cc3ccccc3)NC(=O)[C@H]([C@@H](C)CC)NC(=O)[C@@H](CCCN)NC2=O)[C@@H](C)CC)CS1.[Zn+2] (some centres undefined)	5383	-16
CCOC(=O)[C@H]1[C@H]2COc3ccc(C)cc3[C@@H]2N2C(=O)c3cc(F)c(F)cc3NC(=O)[C@@]12C	2705	-5
O=C(Nc1nc(-c2ccccn2)cs1)c1cccc(S(=O)(=O)N2CCOCC2)c1	3693	37
O=C(Nc1cccc(C(=O)N2CCCC2)c1)C1CCCC1	3558	-18
CCNC(=S)N/N=C/c1ccccc1[N+](=O)[O-]	4476	-18
Cc1ccc(S(=O)(=O)Nc2cc(C)cc(CCNC=O)c2C)cc1	3721	-15
CCOc1ccc([C@@H]2CC=C(C(=O)O)[C@H](c3ccc(Cl)cc3)N2S(=O)(=O)c2ccc(C)cc2)cc1	2918	-17
CCCN1C(=O)CC(=O)N=C1SCC(=O)Nc1ccccc1F	4351	-16
Cc1cc(C(=O)N/N=C/c2cccc(OC(=O)c3cccc(Br)c3)c2)n[nH]1	5460	-25
Cc1cc(=O)n(C(C)c2ccccc2)n1C(C)c1ccccc1 (centres undefined)	3043	19
Cc1cc(O)ccc1NC(=O)Cc1cccc2ccccc12	3295	-20
Cc1cc(C)n(CC(=O)O)c(=O)c1[N+](=O)[O-]	3050	-33
CC(=Nc1ccccc1)C1=C(O)C(Cc2ccccc2)NC1=O (centres undefined)	4109	39
CC(C)(C)OC(=O)C[C@H]1C/C=C\C[C@@H](CC(=O)N[C@@H](CO)Cc2ccccc2)C(=O)NC[C@@H](c2ccccc2)OC1=O	3908	-9
O=C(C[C@@H]1C/C=C\CCC(=O)O[C@H](c2ccccc2)CNC1=O)N[C@H](CO)Cc1ccccc1	3069	-8
CC(C)(C)OC(=O)N1CCC(C(=O)Nc2cccc(C(=O)N3CCCCC3)c2)CC1	3371	-31
O=C(N/N=C/c1cc(Cl)cc([N+](=O)[O-])c1O)c1cccc(S(=O)(=O)N2CCOCC2)c1	6064	-20
CC1Cc2ccccc2N1C(=O)COC(=O)/C=C/c1ccc(F)cc1 (centres undefined)	3612	-10
COc1cc(OCc2ccccc2)c2c(CCC(=O)O)cc(=O)oc2c1	3270	-17
C[C@H](OC(=O)NCc1ccc(C(F)(F)F)cc1)[C@@H]1O[C@@]2(C)CCC[C@@H]1O2	3928	-12
COC(=O)C1=C(c2ccc(OC(F)(F)F)cc2)C[C@@H]2CC[C@H]1N2C(=O)NCc1cccc2ccccc12	3779	2
NC(=S)NN=C1CCCCCCCCCC1	3622	-3
CCOC(=O)N1CCC(NC(=O)CCc2c(C)nc3c(c(C)nn3-c3ccccc3)c2C)CC1	4198	-10
COc1cc2c(cc1N)-c1ccc(N)cc1C2	3545	12
COc1ccc(/C=C(/C(=O)N2CCCCC2C(=O)O)c2ccc(OC)c(OC)c2)cc1 (centres undefined)	3034	9

A run of entries taken from the entries so far, as a working copy:
SMILES	Bead autofluor	PrP UTR inh
NC(=S)NN=C1CCCCCCCCCC1	3622	-3
CCOC(=O)N1CCC(NC(=O)CCc2c(C)nc3c(c(C)nn3-c3ccccc3)c2C)CC1	4198	-10
COc1cc2c(cc1N)-c1ccc(N)cc1C2	3545	12
COc1ccc(/C=C(/C(=O)N2CCCCC2C(=O)O)c2ccc(OC)c(OC)c2)cc1 (centres undefined)	3034	9

Returning to the listing; the seven compounds before the break are reprinted first.
SMILES	Bead autofluor	PrP UTR inh
COc1cc(OCc2ccccc2)c2c(CCC(=O)O)cc(=O)oc2c1	3270	-17
C[C@H](OC(=O)NCc1ccc(C(F)(F)F)cc1)[C@@H]1O[C@@]2(C)CCC[C@@H]1O2	3928	-12
COC(=O)C1=C(c2ccc(OC(F)(F)F)cc2)C[C@@H]2CC[C@H]1N2C(=O)NCc1cccc2ccccc12	3779	2
NC(=S)NN=C1CCCCCCCCCC1	3622	-3
CCOC(=O)N1CCC(NC(=O)CCc2c(C)nc3c(c(C)nn3-c3ccccc3)c2C)CC1	4198	-10
COc1cc2c(cc1N)-c1ccc(N)cc1C2	3545	12
COc1ccc(/C=C(/C(=O)N2CCCCC2C(=O)O)c2ccc(OC)c(OC)c2)cc1 (centres undefined)	3034	9
O=C1NC[C@H](c2ccccc2)OC(=O)[C@@H](Cc2ccc(F)cc2)C/C=C\C[C@H]1CC(=O)N(CCO)Cc1ccccc1	3975	-22
COc1ccc(Cl)cc1C=CC=Nc1ccccc1O	4747	-26
CCN(CC(=O)Nc1ccccc1C(F)(F)F)C(=O)c1ccc(-n2nc(C)c(CCC(=O)OC)c2C)cc1	3527	-13
COc1cc(CN(C(C)=O)c2ccccc2C(=O)O)ccc1[N+](=O)[O-]	3699	-7
CC(=O)Nc1cc2c(cc1[N+](=O)[O-])-c1ccccc1C2=NO	4355	-24
Cc1cc(NC(=O)c2cc(-c3ccncc3)nc3ccccc23)ccc1Br	4268	-16
C=C(NC(=O)C(=C)NC(=O)c1csc(C2=NC3c4csc(n4)C4NC(=O)c5csc(n5)C(C(C)(O)C(C)O)NC(=O)C5CSC(=N5)/C(=C/C)NC(=O)C(C(C)O)NC(=O)c5csc(n5)C3(CC2)NC(=O)C(C)NC(=O)C(=C)NC(=O)C(=C)NC(=O)C(C(C)C)NC2C=Cc3c(C(C)O)cc(nc3C2O)C(=O)OC4C)n1)C(N)=O (centres undefined)	3725	-55
N#Cc1ccc(C(=O)NC(=S)N2CCOCC2)cc1	3821	-22
C#CCN(C[C@@H](CC(C)C)NC(=O)OC(C)(C)C)S(=O)(=O)c1ccc(Br)cc1F	3617	-8
COC(C[C@H](O)[C@@H](C)[C@H](O)COCc1ccccc1)OC	3517	0
CCC(C)Sc1ccc([C@@H]2[C@H]3C(=O)N(CC)C(=O)[C@H]3[C@]3(C(=O)OC)CCCCN23)cc1 (some centres undefined)	9956	-12
CCc1ccc(/C=N/NC(=O)Cc2ccc(OC)c(OC)c2)s1	6352	-19
COc1ccc(C2=NN(C(=O)COC(=O)c3ccc(S(C)(=O)=O)c([N+](=O)[O-])c3)C(c3ccco3)C2)cc1 (centres undefined)	3587	-23
CCOC(=O)c1c(C)[nH]c(C(=O)OC/C(O)=C(\C#N)c2nc3ccccc3[nH]2)c1C	4945	-17
COc1cc(/C=N/n2cnnc2)ccc1Oc1nc(Cl)ncc1F	3865	-16
C=C1CCN([C@H](C(=O)OCc2ccc(C)cc2)C(C)C)S(=O)(=O)c2ccccc21	3375	-22
CCOC(=O)[C@H]1[C@H]2COc3cc(OC)ccc3[C@@H]2N2C(=O)c3cc(OC)c(OC)cc3NC(=O)[C@@]12C	4203	-3
O=[N+]([O-])c1ccc(F)cc1F	4359	-13
CC12C(C(=O)O)C1(c1ccccc1)C2C(=O)O (centres undefined)	3311	-13
COc1cc(CCCN2CCNC[C@@H]2c2ccccc2)cc(OC)c1OC	2914	-9
CCCCCCCCCCCCCCCC[N+](C)(C)Cc1ccc(F)cc1	4503	-38
CCN(CC)C(=O)c1[nH]cnc1C(=O)N[C@H](C)c1ccccc1	3831	-4
CCOC(=O)[C@]12Cc3ccccc3[C@H]1N(Cc1ccccc1)C(=O)c1ccccc12	4013	-4
C[C@@H]1CN([C@H](C)CO)C(=O)c2cc(NC(=O)Nc3cccc4ccccc34)ccc2O[C@H]1CN(C)Cc1ccc(C(F)(F)F)cc1	3866	-10
COC(=O)CCC[C@H]1CC2(C[C@H](CCCO[Si](C)(C)C(C)(C)C)N1C(=O)OC(C)(C)C)OCCO2	2981	-16

Entries of single compounds, quoted from the list:
`COc1cc2c(cc1N)-c1ccc(N)cc1C2` as listed: Bead autofluor = 3545; PrP UTR inh = 12
`COC(C[C@H](O)[C@@H](C)[C@H](O)COCc1ccccc1)OC` as listed: Bead autofluor = 3517; PrP UTR inh = 0

Additional records:
SMILES	Bead autofluor	PrP UTR inh
O=C1[C@H](Cc2ccccc2)NCCCC[C@@H](c2ccc(Cl)cc2)N1Cc1ccc(Cl)cc1	3033	6
COc1ccc(NC(=O)c2ccc(NC(=O)C3COc4ccccc4O3)cc2)c(OC)c1 (centres undefined)	3570	-25
O=C(COC(=O)C1CCC(=O)N1)Nc1cccc([N+](=O)[O-])c1 (centres undefined)	3564	-19
Clc1ccc(C=NNc2ccccn2)c(Cl)c1	4344	-52
O=[N+]([O-])c1cccc(COc2ccccc2CN2CCCCC2)c1	3762	-14
COC(=O)C1=C(c2c(C)noc2C)C[C@@H]2CC[C@H]1N2C(=O)NC1CC1	3767	-37
CC(=O)c1ccccc1NC(=O)COC(=O)c1cc[n+]([O-])cc1	4298	-22
C#CCCC(=O)c1ccccc1/C=[N+](\[O-])c1ccccc1	4002	-21
CCCCN1CCC(CN2C(=S)NC[C@@H]2CC(C)C)CC1	3169	-3
CC(C)(C)OC(=O)N[C@@H](C(=O)OC(C)(C)C)c1ccccc1	2944	-12
CNc1nnc(SCC(=O)c2cc(C)n(C3CC3)c2C)s1	3280	-60
COc1ccc(C(=O)N2Cc3cnnn3-c3ccccc3C2C#N)cc1 (centres undefined)	3504	-10
COc1ccc(N2N=NN(C(C)C)C2=C(Cl)c2nnnn2-c2ccc(OC)cc2)cc1	3957	-30
O=C(Cc1ccccc1)N(c1ccccc1)c1ccccc1	4273	-5
CC(C)(C)OC(=O)N1CCN(Cc2ccc(F)c(B(O)O)c2)CC1	3064	9
COc1ccccc1C(=O)Nc1ccc(OCC(=O)N2C(C)CCCC2C)cc1 (centres undefined)	3732	-9
CC(=O)Nc1cc2c(cc1[N+](=O)[O-])-c1ccc(F)cc1C2	3841	-22
S=C(NN=C(c1ccccc1)c1ccccn1)N(Cc1ccccn1)Cc1ccccn1	3806	9
C[C@H](CO)N1C[C@H](C)[C@@H](CN(C)S(C)(=O)=O)Oc2c(NC(=O)C3CC3)cccc2C1=O	3625	-11
C[n+]1c(-c2ccccc2)cc2c(=Cc3ccccc3)c3ccccc3n21	2891	-14
OCC[C@H]1C[C@@H](O)[C@H](O)[C@@]2(Cc3ccccc3O2)O1	4028	-31
C=C1C(=O)O[C@@H]2[C@H]3O[C@]3(C)CC/C=C(\C)CC[C@@H]12	4199	-13
O=C(Cn1[nH]c(=O)c2ccccc2c1=O)OCC(=O)c1ccc(F)c(F)c1	4293	-25
C[C@@H]1O[C@@H](OCCC(=O)O)[C@H](O)C[C@H]1O	3826	-4
Cc1ccc(S(=O)(=O)N2[C@@H](c3ccc(F)cc3)C(C(=O)O)=CC[C@H]2c2cccs2)cc1	3605	-16
SMILES	Bead autofluor	PrP UTR inh
CC(=O)Nc1ccc(SCCN2CC[C@@H](O)CCC2=O)cc1	3517	-16
Cc1nc(CN2CCCCC2)c(O)c(=O)[nH]1	3199	-10
COC(=O)C1=C(c2ccc(C(C)=O)cc2)C[C@@H]2CC[C@H]1N2C(=O)N1CCCC1	3499	-19
O=C(N/N=C/c1cccc(O)c1)c1cc2c(ccc3ccccc32)o1	5089	-22
COc1ccccc1N1CCN(CCc2c[nH]c3cc4c(cc23)OCO4)CC1	3855	7
COC(=O)C1=C(c2ccc(OC(F)(F)F)cc2)C[C@@H]2CC[C@H]1N2C(=O)NCc1ccc(F)cc1	3815	5
O=C(NC1CC1)c1cccc2c1C(=O)c1ccc(N3CCC(Cc4ccccc4)CC3)cc1S2(=O)=O	4605	-26
COC(=O)C1=C(C)N(Cc2ccccc2)C(=NCc2cccc(Cl)c2)N[C@H]1c1ccccc1	3801	-1
CC[C@H]1C(Nc2ccccc2)C[C@@H]2CCN3C(=O)CC[C@H]1[C@H]23 (some centres undefined)	3883	-4
O=C(NOCc1cscn1)Nc1ccccc1	2903	-12
CC(C)(C)OC(=O)C[C@@H]1C/C=C\C[C@H](CC(=O)N[C@@H](CO)Cc2ccccc2)C(=O)N[C@H](Cc2ccccc2)COC1=O	3161	-35
CC1CCC(NC(=O)c2cc(Cl)nc3ccccc23)CC1 (centres undefined)	3025	-38
O=C1OC[C@H]2CCCN2C(=O)[C@@H](CC(=O)N(CCO)Cc2ccccc2)C/C=C\CC[C@H]1Cc1ccc(F)cc1	3909	-13
O=C(NCc1ccncc1)C(=O)N/N=C/c1ccccn1	4706	-30
C=CCC[C@@H](Cc1ccc(F)cc1)C(=O)OC[C@@H](Cc1ccccc1)NC(=O)[C@@H](CC=C)CC(=O)N[C@@H](CO)Cc1ccccc1	3764	-10
C=CC[C@H](CC(=O)N[C@H](CO)Cc1ccccc1)C(=O)N[C@H](COC(=O)[C@@H](CC=C)Cc1ccc(F)cc1)Cc1c[nH]c2ccccc12	3100	-10
C#CCOCCOCCOCCNc1nc(N2CCN(C(=O)CCCCCCCCCCNC(=O)[C@H]([C@@H](C)CC)n3cc(CCCCN=C(N)N)nn3)CC2)nc(N2CCN(C(=O)CCCCCCCCCCNC(=O)[C@@H]([C@H](C)O)n3cc(C)nn3)CC2)n1	3354	-49
OCC[C@H]1C[C@H](O)[C@@H](O)[C@@]2(OCc3ccccc32)O1	2814	-10
COC(=O)[C@]1(CC(C)C)N[C@H](c2ccc(SC3CCCCC3)cc2)[C@@H]2C(=O)N(C)C(=O)[C@@H]21	2962	-5
CC(=O)O[C@H](COc1c2ccoc2cc2oc(=O)ccc12)C(C)(C)O	3898	-13
CCOC(=O)/C=c1\s/c(=C\c2ccccc2OC)c(=O)n1CC(=O)N1CCOCC1	5698	-15
